ClpP mod: qHTS Assay for Activators of ClpP | ATP-dependent Clp protease proteolytic subunit (Bacillus subtilis (strain 168)), P80244 | purified B. subtilis ClpP, FRET peptide cleavage, 20 min | AID 651965, 2013 | 340,000 compounds, 1.9% hits | Potency, µM (titrated, usually from 57.5 µM), for inactives: at the top dose activity change, negative = active; active = well fitted falling curve with a large enough effect; inconclusive = small, poorly fitted or top-dose-only effect; inactive = no such curve, though single readings can be large or run the other way; further: potency means the concentration at half of the fitted maximal effect; the source files actives as falling curves though it sought activators and does not explain the sign; nearly all actives have a fitted effect of over 65% in size; many hits overshoot -100%
Target sequence (P80244 whole entry, looked up): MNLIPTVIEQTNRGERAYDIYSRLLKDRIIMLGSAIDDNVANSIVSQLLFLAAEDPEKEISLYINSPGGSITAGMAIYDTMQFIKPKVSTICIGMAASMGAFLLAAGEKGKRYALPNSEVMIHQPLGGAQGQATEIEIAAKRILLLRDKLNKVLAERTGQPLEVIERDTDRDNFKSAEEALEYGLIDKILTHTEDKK
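FRET quenching reversal measured ClpP activation: 10 microg/mL B. subtilis ClpP at pH 8 with the FRET-FV decapeptide, read at 430 nm after 320 nm excitation. The 20-min minus 0-min signal was scaled between DMSO/no-enzyme wells and ADEP (5.8 microM final).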
Menin MLL FP FL: qHTS Assay for Inhibitors Targeting the Menin-MLL Interaction in MLL Related Leukemias: Competition With Fluorescein Labeled MLL-derived Peptide | FP activity change, % at 61.4 µM | Fluorescence polarization, fluorescein-MLL peptide displacement from menin | 290,000 tested, under 10 active | AID 1766, 2009; inconclusive = falling polarisation curve, or a change in total fluorescence; inactive = total fluorescence flat and polarisation flat or rising; no compound was filed as active; the % refers to the polarisation; negative = inhibition;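 further: % of control where 0% means no effect; inhibitors lower the polarisation; unlabelled MLL peptide was the positive control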
TRPML1 blocker: qHTS for Inhibitors of the Human Mucolipin Transient Receptor Potential 1 (TRPML1); 390,000 compounds, 0.02% hits; activity change, negative = inhibition, % (no concentration beside the values); TRPML1-inducible cells, Ca2+ dye fluorescence, FDSS; hits give low values; inhibition of EC80 agonist-evoked calcium signal; in the data active means activity change below about -50%; inconclusive means about -30% to -50%; inactive means above about -30%;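 further: stimulus is agonist 54-4 at its EC80 concentration; on the % scale 0 is the no-effect control and ±100 the full control effect; compound concentration not given in the record; the text of the record puts the active cut at -80%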
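Calcium fluorescence in TRPML1-DL cells induced overnight with Tet: a 110 s read after compound pin addition, then a 110 s antagonist read after challenge with 54-4 at 4 uM final (EC80).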
Sfp inh: qHTS Assay for Inhibitors of Bacillus subtilis Sfp phosphopantetheinyl transferase (PPTase); 310,000 compounds, 3.5% hits; AID 1490, 2009; 4'-phosphopantetheinyl transferase ffp (Bacillus subtilis), Q9F4F7; Potency, µM, inactives show max response, negative = inhibition, hits mostly inhibitors; Biochemical Sfp PPTase activity, qHTS; active means well fitted inhibition curve with a large enough effect; inconclusive means small, poorly fitted or top-dose-only effect, or another doubt; inactive means no such curve, though single readings can be large or run the other way;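 further: the enzyme is Sfp with the accession as filed and its product quenches rhodamine fluorescence; potency means the concentration at half of the fitted maximal effect; 0% = enzyme reaction without inhibitor and -100% = no enzyme wells; top concentration of the series not given in the record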
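Fluorescence-quenching assay: 15 nM Sfp-PPTase preincubated 15 min at room temperature with compound, then 5 uM rhodamine-CoA and 12.5 uM BHQ-2-labelled YbbR peptide added. Fluorescence (ex 525/em 598 nm) read at start and after 30 min; difference gives rate.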
gsp agonist: qHTS for Agonist of gsp, the Etiologic Mutation Responsible for Fibrous Dysplasia/McCune-Albright Syndrome: qHTS | gsp mutant cells, cAMP HTRF, 30 min; control for the full effect not named in the record | Potency, µM (series often up to 76.9 µM), for inactives: at the top dose activation (cAMP increase), hits mostly activators | 340,000 compounds, 0.13% hits | AID 624287, 2012; active = well fitted activation curve with a large enough effect; inconclusive = small, poorly fitted or top-dose-only effect, or another doubt; inactive = no such curve, though single readings can be large or run the other way; cell line not stated here;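 further: phosphodiesterase inhibitor Ro 20-1724 added with compounds to block cAMP breakdown; potency means the concentration at half of the fitted maximal effect; nearly all actives have a fitted effect of over 60% in size; about a fifth of the inactives were tested at one dose only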
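Cells stably selected in G418 were plated at 2000/well, grown 16-24 hr, then given compounds in DMSO with the PDE inhibitor […] (300 uM solution added) for 30 min at 37C; cAMP was read by HTRF.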
TRPV1 PAM: HTS Assay for Compounds that Act as Potentiators of the Vanilloid Receptor 1 | Transient receptor potential cation channel subfamily V member 1 (Homo sapiens), Q8NER1 | TRPV1-expressing cells, Fluo-8 calcium influx, capsaicin EC20 potentiation; host cell line not named in the record; control for the full effect not named in the record | potentiation, % at 8.33 µM | 320,000 compounds, 0.02% hits | AID 540277, 2011; active means potentiation above 80%; inconclusive means 30% to 80%; inactive means below 30%; further: 0% is about no effect
Target sequence (Q8NER1 whole entry, looked up): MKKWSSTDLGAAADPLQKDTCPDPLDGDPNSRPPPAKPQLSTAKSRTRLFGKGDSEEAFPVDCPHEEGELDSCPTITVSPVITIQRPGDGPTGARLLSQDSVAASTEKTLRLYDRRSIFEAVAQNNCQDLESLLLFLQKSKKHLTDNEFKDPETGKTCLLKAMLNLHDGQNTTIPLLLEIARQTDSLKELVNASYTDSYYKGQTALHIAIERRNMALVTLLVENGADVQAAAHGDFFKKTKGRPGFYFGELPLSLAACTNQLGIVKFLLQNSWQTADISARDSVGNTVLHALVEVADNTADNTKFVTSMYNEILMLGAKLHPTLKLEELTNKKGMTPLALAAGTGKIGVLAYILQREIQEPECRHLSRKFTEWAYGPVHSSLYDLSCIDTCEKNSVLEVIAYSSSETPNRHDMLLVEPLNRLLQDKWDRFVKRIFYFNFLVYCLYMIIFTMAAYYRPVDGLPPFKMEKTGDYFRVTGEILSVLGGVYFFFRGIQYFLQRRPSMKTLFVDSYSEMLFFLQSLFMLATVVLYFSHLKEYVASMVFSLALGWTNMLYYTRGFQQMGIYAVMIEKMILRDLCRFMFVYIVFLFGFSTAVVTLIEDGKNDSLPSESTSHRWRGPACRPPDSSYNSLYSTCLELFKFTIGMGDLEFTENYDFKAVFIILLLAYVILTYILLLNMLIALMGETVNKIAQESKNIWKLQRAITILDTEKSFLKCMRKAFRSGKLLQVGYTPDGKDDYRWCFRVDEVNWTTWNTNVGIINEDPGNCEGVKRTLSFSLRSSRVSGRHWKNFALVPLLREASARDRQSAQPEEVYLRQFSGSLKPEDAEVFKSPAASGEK
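Fluo-8 calcium influx in TRPV1-expressing cells, kinetic read (ex 480/em 520 nm). Compound added and read 3 min for agonist activity, followed by capsaicin at EC20 final and 2 min further read for enhancement.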
gsp antagonist: qHTS for Antagonists of gsp, the Etiologic Mutation Responsible for Fibrous Dysplasia/McCune-Albright Syndrome: qHTS | gsp-mutant cells, cAMP HTRF, 30 min; control for the full effect not named in the record | Potency, µM (highest dose often 76.9 µM), for the others: top-dose activity change, negative = inhibition, most hits filed as inhibitors | 340,000 compounds, 0.4% hits; active = falling curve of any shape with a large fitted effect; inconclusive = falling curve, mostly with a smaller effect; inactive = flat or rising curve; cell line not stated here;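 further: intracellular cAMP measured with PDE inhibitor Ro 20-1724 present during compound exposure; potency means the concentration at half of the fitted maximal effect; on the % scale 0 is the no-effect control and ±100 the full control effect; nearly all actives have a fitted effect of over 65% in size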
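G418-selected cells were plated in DMEM/10% FBS for 16-24 h at 37C, then treated with compounds plus the PDE inhibitor […] (300 uM solution added) for 30 min at 37C. Intracellular cAMP was measured by HTRF after 30 min lysis at room temperature.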
Active calls of the source: *; [ ] = another dose, or the depositor's remark. Compounds as they come; about 4.9% have a hit in one of these screens.

What do the screens show for `Cc1ccc(N=C(NO)c2cnccc2C(F)(F)F)c(C)c1`?
ClpP mod: 1.1%; Menin MLL FP FL: 8.0; TRPML1 blocker: -4; Sfp inh: 5%; gsp agonist: -18%; TRPV1 PAM: -23; gsp antagonist: 6%

Results for Cc1cccc(NC(=O)Cn2nc(-c3cccs3)ccc2=O)c1C ?
Menin MLL FP FL: 0.7; TRPML1 blocker: 7; Sfp inh: 11%; gsp agonist: -8%[15.4 µM]; TRPV1 PAM: 6; gsp antagonist: 9%

What do the screens show for `COc1ccccc1NC(=O)CN1CCN(CC(=O)Nc2ccc(OCc3ccccc3)cc2)CC1`?
ClpP mod: -1.3%; Menin MLL FP FL: -1.1; TRPML1 blocker: -7; Sfp inh: 6%; gsp agonist: 4%; TRPV1 PAM: -2; gsp antagonist: -22%

Results for O/N=C(/CN(O)/C=C1/C=CC=N1)c1cccs1 ?
ClpP mod: -1.6%; Menin MLL FP FL: 3.6; TRPML1 blocker: 3; Sfp inh: 9%; gsp agonist: -3%; TRPV1 PAM: 12; gsp antagonist: -9%

Results for Cn1c(N)c(C(=O)CSc2ccc3c(c2)OCCO3)c(=O)n(C)c1=O ?
ClpP mod: 0.9%; Menin MLL FP FL: -3.5; TRPML1 blocker: -17; Sfp inh: -28%; gsp agonist: -44%[inhibitor]; TRPV1 PAM: 7; gsp antagonist: -6%[15.4 µM]

What do the screens show for `O=C(NCc1ccccc1Cl)C1CCN(S(=O)(=O)N2CCCC2)CC1`?
ClpP mod: 1.0%; Menin MLL FP FL: -2.1; TRPML1 blocker: 48; Sfp inh: 7%; gsp agonist: -2%; TRPV1 PAM: 10; gsp antagonist: 3%

What do the screens show for `Cc1ccccc1OCC(=O)Nc1ccc(S(=O)(=O)N2CCCC2)cc1`?
TRPML1 blocker: -9; gsp agonist: -5%[15.4 µM]; TRPV1 PAM: -9; gsp antagonist: -8%

What do the screens show for `COc1ccc(/C=C/C(=O)NC(=S)Nc2cc3oc4ccccc4c3cc2OC)cc1`?
Menin MLL FP FL: -0.5; TRPML1 blocker: 5; Sfp inh: 11%; gsp agonist: -17%; TRPV1 PAM: 7; gsp antagonist: 1%

What do the screens show for `CCOC(=O)C1CCN(C(=O)Cn2cc3c(n2)CCC(C)C3)CC1` (centres undefined)?
ClpP mod: 0.6%; Menin MLL FP FL: 3.5; TRPML1 blocker: -7; Sfp inh: 3%; gsp agonist: inconclusive; TRPV1 PAM: 19; gsp antagonist: 1%

How did CCc1ccc(N(CC(=O)NC(C)C)C(=O)CCC(=O)Nc2nccs2)cc1 do in these assays?
Menin MLL FP FL: -14; TRPML1 blocker: 7; Sfp inh: 2%; gsp agonist: -9%; TRPV1 PAM: 15; gsp antagonist: 10%

Results for Cc1cc(-c2ccc(N3C(=O)CCC3=O)c(C)c2)ccc1N1C(=O)CCC1=O ?
ClpP mod: -3.1%; Menin MLL FP FL: 2.1; TRPML1 blocker: 45; Sfp inh: 17%; gsp agonist: 18%; TRPV1 PAM: 25; gsp antagonist: 11%

How did Nc1ccc(-c2cnc[nH]2)cc1[N+](=O)[O-] do in these assays?
ClpP mod: -0.7%; Menin MLL FP FL: 0.4; TRPML1 blocker: 1; Sfp inh: 3%; gsp agonist: 7%[15.4 µM]; TRPV1 PAM: 5; gsp antagonist: -18%

What do the screens show for `Cc1cc(S(=O)(=O)NCCN2CCOCC2)c(C)s1`?
ClpP mod: 0.8%; Menin MLL FP FL: 2.5; TRPML1 blocker: 5; Sfp inh: 4%; gsp agonist: -6%; TRPV1 PAM: 8; gsp antagonist: 10%

Results for COc1ccc(N(CC(=O)NC2CCCCC2)C(=O)CNC(=O)c2ccco2)cc1 ?
Menin MLL FP FL: 1.4; TRPML1 blocker: 3; Sfp inh: 20%; gsp agonist: -9%[15.4 µM]; TRPV1 PAM: 8; gsp antagonist: 2%

Results for Cc1ccc(-n2c(SCC(N)=O)nnc2-c2cnccn2)cc1 ?
Menin MLL FP FL: 3.9; TRPML1 blocker: 6; Sfp inh: 8%; gsp agonist: 12%[15.4 µM]; TRPV1 PAM: -8; gsp antagonist: 0%

What do the screens show for `COCc1nnc(NC(=O)c2ccc3c(c2)OCO3)s1`?
Menin MLL FP FL: -4.0; TRPML1 blocker: 21; Sfp inh: inconclusive; gsp agonist: 12%[15.4 µM]; TRPV1 PAM: 26; gsp antagonist: -2%

How did CCN1C(=O)C(CC(=O)NC)N(NC(=O)c2ccccc2)C1=S (centres undefined) do in these assays?
ClpP mod: 25µM*; Menin MLL FP FL: 9.9; TRPML1 blocker: -10; Sfp inh: inconclusive; gsp agonist: 15%[15.4 µM]; TRPV1 PAM: 26; gsp antagonist: -12%

Results for CCOC(=O)N1CCN(Cc2ccc(F)cc2F)CC1 ?
ClpP mod: 0.0%; Menin MLL FP FL: -4.7; TRPML1 blocker: 29; Sfp inh: -24%; gsp agonist: -18%; TRPV1 PAM: -5; gsp antagonist: 11%

How did O=C(C1CCCO1)N1CCN(C(=S)Nc2ccc(F)c(Cl)c2)CC1 (centres undefined) do in these assays?
Menin MLL FP FL: 6.5; TRPML1 blocker: 6; Sfp inh: -3%; gsp agonist: -17%; TRPV1 PAM: 3; gsp antagonist: 6%

Results for Cc1ccc(Nc2cc(C)nc3c(C)cccc23)cc1 ?
Menin MLL FP FL: -1.3; TRPML1 blocker: 6; Sfp inh: 15%; gsp agonist: 10%; TRPV1 PAM: 27; gsp antagonist: -7%

What do the screens show for `COc1cc(C(=O)Nc2ccccc2N2CCOCC2)ccc1OCC(=O)N1CCOCC1`?
ClpP mod: -1.5%; TRPML1 blocker: 2; gsp agonist: -29%; TRPV1 PAM: 12; gsp antagonist: -1%

Results for O=C(/C=C/c1cccc([N+](=O)[O-])c1)Nc1ccc(Cl)cn1 ?
ClpP mod: 1.9%; Menin MLL FP FL: -0.5; TRPML1 blocker: -4; Sfp inh: -15%; gsp agonist: 1%; TRPV1 PAM: 5; gsp antagonist: -4%

Results for CCOC(=O)Cc1csc(Nc2c(C)n(C)n(-c3ccccc3)c2=O)n1 ?
ClpP mod: 1.3%; Menin MLL FP FL: -0.8; TRPML1 blocker: -16; Sfp inh: 14%; gsp agonist: -9%; TRPV1 PAM: 0; gsp antagonist: 10%

How did c1ccc2c(c1)NCC1CCCN21 (centres undefined) do in these assays?
ClpP mod: -5.4%; TRPML1 blocker: -29; Sfp inh: 13%; gsp agonist: -28%; TRPV1 PAM: -8; gsp antagonist: inconclusive

Results for CCn1c(SCC(=O)Nc2cc(C)on2)nc2sc(C)c(C)c2c1=O ?
Menin MLL FP FL: 9.3; Sfp inh: inconclusive; TRPV1 PAM: -6

How did CCN1/C(=C/c2ccc3cc(C)cc(C)c3[n+]2CC)Sc2cc(C)ccc21 do in these assays?
ClpP mod: 1.9%; Menin MLL FP FL: inconclusive; TRPML1 blocker: -24; Sfp inh: 10µM*; gsp agonist: inconclusive; TRPV1 PAM: 12; gsp antagonist: -37%

What do the screens show for `CCCC(=O)N1CCN(c2ccc(NC(=O)c3ccc(Br)o3)cc2)CC1`?
ClpP mod: -0.6%; Menin MLL FP FL: 1.3; TRPML1 blocker: 1; Sfp inh: -9%; gsp agonist: -15%; TRPV1 PAM: inconclusive; gsp antagonist: -4%[15.4 µM]

What do the screens show for `COc1ccc(Cn2c(-c3ccccc3)nc3c(c(=O)c4ccccc4n3C)c2=O)cc1`?
ClpP mod: 2.2%; Menin MLL FP FL: 3.7; TRPML1 blocker: 1; Sfp inh: 5%; gsp agonist: -35%[inhibitor]; TRPV1 PAM: 3; gsp antagonist: -3%

Results for O=C(NC1CCCc2ccccc21)c1cccc(F)c1 (centres undefined) ?
TRPML1 blocker: -1; gsp agonist: 3%; gsp antagonist: 1%

What do the screens show for `CC(=O)Nc1ccc(Nc2nc(C(F)(F)F)nc3c2nnn3Cc2ccccc2Cl)cc1`?
Menin MLL FP FL: 1.2; TRPML1 blocker: 4; Sfp inh: inconclusive; gsp agonist: -45%; TRPV1 PAM: -3; gsp antagonist: inconclusive

Results for Cc1[nH]c2ccccc2c1C(=O)CN1CCC(C)CC1 ?
ClpP mod: -0.3%; Menin MLL FP FL: -1.0; TRPML1 blocker: 7; Sfp inh: 24%; gsp agonist: inconclusive; TRPV1 PAM: -4; gsp antagonist: 12%

What do the screens show for `O=C(COc1ccc(Cl)cc1Cl)N1CCCN(C(=O)COc2ccc(Cl)cc2Cl)CC1`?
ClpP mod: 0.3%; Menin MLL FP FL: -0.3; TRPML1 blocker: 4; Sfp inh: 8%; gsp agonist: -36%[inhibitor]; TRPV1 PAM: 0; gsp antagonist: inconclusive

Results for CCN1C[C@@H]2[C@@H]3C(=O)N(Cc4ccccc4)C(=O)[C@@H]3[C@](C)(C1=O)N2C(=O)c1ccc(C)cc1 ?
ClpP mod: -1.3%; TRPML1 blocker: 7; gsp antagonist: -1%

What do the screens show for `CCOc1ccc(/C(C)=N/NC(=O)Cn2nc([N+](=O)[O-])cc2C)cc1`?
ClpP mod: -0.2%; Menin MLL FP FL: 2.6; TRPML1 blocker: 4; Sfp inh: 16%; gsp agonist: -1%[15.4 µM]; TRPV1 PAM: -7; gsp antagonist: -23%

Results for CCOC(=O)C1(C(N)=O)OC1(c1ccc(Cl)cc1)c1ccccc1Cl (centres undefined) ?
TRPML1 blocker: 21; gsp agonist: -8%; gsp antagonist: -4%

Results for CC(=O)Nc1ccc(S(=O)(=O)NNC(=O)c2cccc(Br)c2)cc1 ?
Menin MLL FP FL: -3.1; TRPML1 blocker: 27; Sfp inh: 1%; gsp agonist: -21%; TRPV1 PAM: -2; gsp antagonist: 2%

What do the screens show for `COC(=O)Cc1cc(=O)n2c(nc3ccccc32)[nH]1`?
ClpP mod: 4.0%; TRPML1 blocker: -15; gsp agonist: inconclusive; gsp antagonist: -6%

What do the screens show for `CCOC(=O)N1CCN(c2nc3c(c(=O)[nH]c(=O)n3C)n2Cc2ccccc2Cl)CC1`?
Menin MLL FP FL: 0.1; Sfp inh: -14%; TRPV1 PAM: 2

Screens from PubChem BioAssay.
